# MT1-MMP act inh: MT1-MMP (human) activation inhibition | P50281 | HT1080 RFP-PRO-GFP cells, GFP/RFP ratio fluorescence, overnight; percent of plate control window, DMSO zero | GFP/RFP ratio change, % at 20 µM | 0.061% of 360,000 active;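 active = GFP/RFP ratio change of at least 30% with cell ATP level not reduced by more than half and red fluorescence within 50% of control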; note: strong numbers were not always called active
#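 Compound: 20 µM single dose, 1% DMSO / System: HT1080 RFP-PRO-GFP cells / Controls: DMSO and RFP-L50D-GFP cell wells / Read-out basis: GFP/RFP fluorescence ratio / Schedule: overnight compound exposure at 37 °C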
# HIV Env fusion: blocks HIV Env-driven cell-cell fusion; inhibition, % at 12.3 µM; AID 651610; HeLa-JRFL Env/CEM21 cell fusion, luciferase; 1.1% of 360,000 active;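 active = mean replicate inhibition score of at least 50 and every replicate individually at or above 50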;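 note: 0% = plate neutral controls and 100% = maraviroc near 300 nM; one replicate is shown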
# Rce1 inhib: blocks yeast Ras-converting enzyme. Q03530. yeast membranes, quenched prenylated peptide cleavage fluorescence. calls only. 0.27% of 290,000 active. AID 2563;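 active = fall in fluorescence gain of 50% or more versus controls, with final raw signal at or below 3038400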;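 note: plate controls were neutral control wells for no effect and wells lacking membranes for full effect; tested at 10 µM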
# Target sequence (Q03530 whole entry, looked up): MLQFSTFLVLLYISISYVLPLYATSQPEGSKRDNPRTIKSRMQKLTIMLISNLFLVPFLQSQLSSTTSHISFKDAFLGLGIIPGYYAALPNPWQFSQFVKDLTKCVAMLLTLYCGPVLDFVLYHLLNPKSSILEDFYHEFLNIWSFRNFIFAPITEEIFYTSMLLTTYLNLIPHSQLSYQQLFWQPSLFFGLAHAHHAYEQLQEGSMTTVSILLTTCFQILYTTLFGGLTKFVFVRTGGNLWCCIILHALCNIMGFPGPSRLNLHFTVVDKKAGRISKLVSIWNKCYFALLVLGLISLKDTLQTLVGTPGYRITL
# eIF4H inh: inhibitors of RNA binding by human eIF4H; eIF4H fluorescence polarization binding assay; inhibition, % at 35 µM; 0.94% of 290,000 active;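 active = 50% or more with normal probe brightness, or confirmed in later tests; about a fifth of its hits are not listed in these tables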;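 note: calls also rest on retests at 20 µM and on dose response follow-up; 0% = protein and probe with vehicle and 100% = probe without protein; strong numbers were not always called active; many hits fall short of the cut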
# CSC inhib: blocks cancer stem cells; 1.1% of 300,000 active; inhibition, % at 7.5 µM; cancer stem cell-like cells viability, luminescence;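 active = mean at 75% or more and at least half the replicates too; tested in HMLE shEcad cells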;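 note: 0% = median of negative and 100% = median of positive control wells; the first replicate is given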
# UUG fidelity: alters start codon recognition fidelity in yeast; S. cerevisiae UUG-firefly luciferase reporter, luminescence/redox ratio; activity score, % at 18.7 µM; 0.13% of 350,000 active;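 active = replicate mean at a twofold rise or more, about +100% in these data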;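 note: firefly luciferase made from a UUG start codon reports start codon fidelity; reporter light over untreated wells divided by growth signal over untreated wells; some hits fall short of that in this replicate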
# PABP FP inh: PABP-poly(A) binding inhibition. PABP-poly(A) RNA binding, fluorescence polarization. 1% of 290,000 active. P11940. inhibition, % at 35 µM. AID 2014;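 active = 50% or more with normal probe brightness, or confirmed in later tests; about a fifth of its hits are not listed in these tables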;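 note: calls also rest on retests at 20 µM and on dose response follow-up; controls were probe without protein and protein plus probe with vehicle; some compounds called inactive have numbers as strong as hits; many hits fall short of the cut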
# eIF4H inh retest: recorded beside eIF4H inh, whose call it bears; inhibition, %; compound at 20 µM; confirmation average;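 mean of two retest wells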
# PABP FP inh retest: also measured in PABP FP inh; calls as there; inhibition, %; compound at 20 µM; confirmation repeats;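 mean of two retest wells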
# MT1-MMP act inh RFP: recorded beside MT1-MMP act inh, whose call it bears; RFP signal change, %; measured here: RFP expression control read;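 0 = vehicle wells; hits needed this value within 50% of zero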
# The depositor's hits bear a star; i = inactive; nt = no result given.
SMILES,MT1-MMP act inh,MT1-MMP act inh RFP,HIV Env fusion,Rce1 inhib,eIF4H inh,CSC inhib,UUG fidelity,PABP FP inh,others
COc1ccc(OC)c(S(=O)(=O)Nc2ccc(Oc3ccccc3)cc2)c1,-2,-17,11,i,-1,-18,nt,4,
Cc1cc(C(=O)NC2CCCc3c2cnn3-c2ccc(C)c(C)c2)nc(C)n1 (stereo not given),1,-8,8,i,-19,26,-7,-2,
c1ccc(-c2nnc3sc(-c4cc5ccccc5o4)nn23)cc1,2,0,-92,i,4,28,-16,-3,
CN1CCN(c2ccc(NC(=O)c3ccccc3)cc2)CC1,-2,0,-8,i,10,nt,-12,14,
COC(=O)C1=C(N)Oc2cc(C)n(CCCn3ccnc3)c(=O)c2C1c1cccc(Cl)c1 (stereo not given),0,0,nt,i,-1,-11,-9,2,
COc1ccc(N(C)S(=O)(=O)c2cccc(C(=O)NC3CCCCC3C)c2)cc1 (stereo not given),-13,-13,18,i,-2,nt,-8,5,
O=C(NCc1ccccn1)C1CCN(S(=O)(=O)c2cnc[nH]2)CC1,1,2,-57,i,-3,-12,9,-3,
CC(C)C(=O)NC(CC(=O)O)c1ccccc1 (stereo not given),-1,0,-10,i,-1,1,-29,2,
CC1CC1C(=O)N(C)CC(=O)Nc1cccc(F)c1 (stereo not given),-6,-6,-394,i,nt,-15,-6,nt,
CC(C)CCNC(=O)C1(O)c2ccccc2NC(=O)N1c1ccc(Cl)cc1 (stereo not given),-1,0,16,i,1,-6,-8,-9,
CC(C)Oc1ccc(C(CC(=O)O)NC(=O)C(Sc2ccccc2)c2ccccc2)cc1 (stereo not given),2,4,-3,i,0,1,-9,7,
COc1ccccc1-n1c(SCC(=O)Nc2ccc(NC(C)=O)cc2)nc2c([nH]c3ccccc32)c1=O,-1,1,-4,i,7,0,-14,7,
CC(C)c1nc2cc(C(=O)N(C)Cc3ccc(F)cc3)ccc2o1,-1,1,-8,nt,-4,0,-11,-2,
Cc1ccc(NS(=O)(=O)c2ccc3c(c2)oc(=O)n3C)c(C)c1,-3,-3,2,i,-4,-11,-13,-2,
O=C(O)C1SCCN1S(=O)(=O)c1ccc(N=NN2CCOCC2)cc1 (stereo not given),-7,-7,-18,i,2,-13,nt,-1,

# In the list so far, 3 have a COOH group:
SMILES,MT1-MMP act inh,MT1-MMP act inh RFP,HIV Env fusion,Rce1 inhib,eIF4H inh,CSC inhib,UUG fidelity,PABP FP inh,others
CC(C)C(=O)NC(CC(=O)O)c1ccccc1 (stereo not given),-1,0,-10,i,-1,1,-29,2,
CC(C)Oc1ccc(C(CC(=O)O)NC(=O)C(Sc2ccccc2)c2ccccc2)cc1 (stereo not given),2,4,-3,i,0,1,-9,7,
O=C(O)C1SCCN1S(=O)(=O)c1ccc(N=NN2CCOCC2)cc1 (stereo not given),-7,-7,-18,i,2,-13,nt,-1,

# The list goes on:
SMILES,MT1-MMP act inh,MT1-MMP act inh RFP,HIV Env fusion,Rce1 inhib,eIF4H inh,CSC inhib,UUG fidelity,PABP FP inh,others
COc1ccc(/C=N/n2cncn2)cc1Cn1cc([N+](=O)[O-])cn1,3,5,-8,i,-3,-6,-15,-11,
O=C(CN(C(=O)CCC(=O)Nc1nccs1)c1ccc(F)cc1)NCc1ccc2c(c1)OCO2,0,1,-17,i,-1,17,-15,12,
COc1ccc(NC(=O)C2CCCN(S(=O)(=O)c3cccc4nonc34)C2)cc1OC (stereo not given),-3,-2,-151,i,0,-13,nt,0,
Cc1ccc(-n2nc3c(N4CCC(C(=O)N5CCCCCC5)CC4)nnc(C)c3c2C)cc1,0,-1,nt,i,nt,-20,-14,nt,
COc1cccc(CN2CCNC(=O)C2CC(=O)NCCOc2cccnc2)c1 (stereo not given),-2,5,3,i,10,-12,nt,13,
Oc1cc(Nc2ccccc2)cc2cccnc12,10,9,21,nt,nt,nt,-30,nt,
COc1cc(/C=C(\NC(=O)c2ccccc2)C(=O)NCCO)c([N+](=O)[O-])cc1OC,1,5,0,i,-2,-19,nt,3,
CCN(CC)S(=O)(=O)c1ccc(OCC(=O)NC(=O)c2ccccc2OC)c([N+](=O)[O-])c1,1,0,-8,i,-9,3,-10,6,
N#C/C(=C\c1cccc(NC(=O)c2ccccc2Cl)c1)C(=O)NCCc1ccccc1,-23,-26,-43,i,-7,-8,nt,3,
CCOC(=O)CSc1ccc2nnc(-c3ccccc3)n2n1,0,1,6,i,-5,9,-7,1,
O=C(CSc1ncccn1)NC1CCS(=O)(=O)C1 (stereo not given),-2,1,-15,i,-10,-11,-21,-6,
CCOC(=O)C1=C[C@@H](C(C)C)N(S(=O)(=O)c2ccc(C)cc2)[C@H]1c1ccc(C(C)C)cc1,-2,-11,47,nt,nt,nt,-9,nt,
COc1cc(C(=O)NC2CCCc3ccccc32)ccc1OCC(=O)Nc1ccc(F)cc1 (stereo not given),-1,-5,-5,i,-9,-16,nt,0,
COC(C(=O)Nc1ccc(F)cc1)c1ccccc1 (stereo not given),-3,2,-26,i,0,5,-10,-6,
COc1cccc(C(=O)Nc2cccc(C(=O)NCC(C)C)c2)c1,-1,7,4,i,12,-1,12,-1,
CC(/C=C/c1ccc(N(C)C)cc1)=N/N=C1/NC(=O)CC(C(=O)Nc2ccc(Cl)cc2)S1 (stereo not given),0,3,-20,i,-1,37,-16,-9,
COc1cc2c(cc1OC)CN(C1CCC(C)CC1)CC2 (stereo not given),-1,2,-44,i,0,17,-15,-11,
CC(=O)Nc1ccccc1C(=O)C(=O)Nc1cccc(Br)c1,1,-3,-14,i,-5,-2,nt,-10,
CC(C)CC(=O)Nc1ccc2c3c(cccc13)CC2,1,0,4,i,-12,-1,-14,2,
Cc1ccc(C(C)C)c(OCC(=O)Nc2ccc(N3CCN(S(C)(=O)=O)CC3)cc2)c1,4,0,nt,nt,6,2,-29,0,
COc1cc(/C=C/C(=O)OCC(=O)c2ccccc2)cc(OC)c1OC,3,4,-7,nt,nt,-16,-20,nt,
COc1ccccc1N1CCN(C(=O)c2cn(C)c3ccc(S(=O)(=O)N4CCOCC4)cc3c2=O)CC1,3,6,0,i,-4,nt,-11,2,
CCOC(=O)C(NC(=O)c1ccc(F)cc1)(Nc1nnc(C)s1)C(F)(F)F (stereo not given),-4,-2,nt,i,-14,3,-13,-6,
Cn1nc(-c2ccccc2)c(CSc2ccccc2)c1Cl,8,3,nt,i,3,48,1,-4,
CSc1ccc(Cn2c(C)c(C(=O)NCc3cccs3)sc2=O)cc1,4,-9,0,nt,nt,nt,-12,nt,
Cc1ccc(NC(=O)CCNS(=O)(=O)c2ccc3c(c2)CCC(=O)N3)cc1C,2,2,2,i,-5,-10,-10,-1,
O=C(CSc1n[nH]c(-c2ccncc2)n1)Nc1ccc(Cl)cc1,1,3,2,i,53,2,nt,37,eIF4H inh retest=1;PABP FP inh retest=1
COc1ccc(C(=O)CSc2nnc(CCc3ccccc3)n2-c2ccccc2)cc1,-4,-2,45,i,-6,-9,-3,0,
Cc1ccc2cc(C#N)c(NCCNC(=S)NCCCN(C)C)nc2c1C,-2,2,4,i,-10,13,nt,-4,
CC(C)OCC(O)CN1CCNCC1 (stereo not given),2,2,-16,i,-7,-3,-15,13,
Cc1ccc(SCC(=O)NC2CC2)cc1,-2,0,1,i,-8,-10,-11,-2,
COc1cccc(CNC(=O)CCC2CCCN(C(=O)c3ccc(C)nc3)C2)c1 (stereo not given),-1,1,3,i,-10,-2,5,-2,
CCC(=O)Nc1ccc(Br)c(Cl)c1,-1,-5,-161,i,-10,-10,-20,8,
O=C(CCn1c(=S)oc2ccccc21)N1CCN(c2ccc(F)cc2)CC1,10,-5,-105,i,2,-25,nt,1,
CCCCN(CC)C(=O)Cc1cn(C)c2ccccc12,-7,-1,-52,i,-4,-14,-7,1,
OCCNCCSc1ccc(Cl)cc1,2,8,-5,i,1,-2,nt,10,
Cc1ccc(C)c(OCc2ccc(C(=O)Nc3ccc([N+](=O)[O-])cn3)o2)c1,4,-27,4,nt,nt,20,7,nt,
Cc1cccc(N/C=C(\[N+](=O)[O-])S(=O)(=O)c2ccccc2)c1C,0,4,-5,i,-5,-8,nt,-9,
O=C(O)C1CCCN(S(=O)(=O)c2ccc3c(c2)OCCO3)C1 (stereo not given),0,3,13,i,-4,nt,nt,-2,
O=C1S/C(=C\c2ccc(Cl)cc2)C(=O)N1CCn1cnnn1,-3,-5,-74,i,1,-4,nt,8,
CCN(C(=O)COC(=O)c1[nH]c(C)c(C(C)=O)c1C)C1CCS(=O)(=O)C1 (stereo not given),4,10,10,i,6,-12,1,5,
CC(=O)[C@@]1(O)CC[C@H]2[C@@H]3CCC4=CC(=O)CC[C@]4(C)[C@H]3CC[C@@]21C,3,-1,-129,i,3,-13,-23,-6,
COC(=O)c1ccc(NC(=O)CCn2c(=O)oc3ccccc32)cc1,-1,2,-482,i,-7,nt,5,2,
Cc1cccc(C)c1NC(=O)c1cc(S(=O)(=O)N2CCOCC2)ccc1F,1,0,-66,i,4,1,-8,8,
CCn1c(SCC(=O)Nc2ccc(C)cc2)nnc1-c1ccc(O)cc1,2,-3,23,i,-4,6,-15,-5,
O=C(NNC(=O)c1ccccc1[N+](=O)[O-])Nc1ccccc1C(F)(F)F,-2,-1,-6,i,-5,-7,nt,4,
O=C(c1ccoc1)N1CCCC(N2CCN(c3cccc(Cl)c3)CC2)C1 (stereo not given),2,-2,-19,i,-9,-33,-9,1,
CN(C)/C=C/C(=O)c1ccc(Br)s1,-8,0,19,i,-1,-2,1,8,
O=C1NC(=Nc2ccccc2Cl)S/C1=C\c1ccc(C(=O)O)cc1,2,4,14,i,4,-4,-4,7,
Cc1c(C#N)c2ncnc(-c3ccccc3)c2n1-c1ccccc1,-1,-4,14,i,-4,-4,-10,-1,
COc1ccc(CN(CC(=O)NCC2CCCO2)C(=O)CCC(=O)Nc2nccs2)cc1 (stereo not given),-4,-3,-1,nt,-6,-19,-5,6,
COc1ccc(OCCN2CCN(C3CC(=O)N(CCC(C)C)C3=O)CC2)cc1 (stereo not given),4,-2,-48,i,-2,7,7,2,
CCCCNc1nc2sc3c(c2c(=O)n1-c1cccc(Cl)c1)CCN(C)C3,-12,2,4,i,8,8,nt,-8,
Cc1ccccc1OCCNC(=O)c1ccccc1Sc1ccccc1C#N,4,-1,nt,i,5,-7,-4,0,
O=C(OCC1COc2ccccc2O1)c1ccccc1F (stereo not given),3,1,nt,i,-6,-10,-18,0,
COc1cccc(NC(=O)N2CCCC(C(=O)Nc3ccccc3OC)C2)c1 (stereo not given),3,5,4,i,-5,-13,-9,3,
CC(C)c1nc2sc(C(=O)O)c(N)c2c2c1CCCC2,-3,-3,17,i,12,2,-9,5,
CCc1cc2c3c(c1)C1(C(=O)N3C(C)(C)CC2C)C(C#N)=C(N)N2C(=C1C#N)Nc1ccccc12 (stereo not given),-13,-6,-6,i,7,17,nt,-3,
Cc1ccccc1S(=O)(=O)NC1OC(=O)C(Oc2ccccc2)=C1Br (stereo not given),-5,0,5,i,-1,nt,nt,12,
O=C(NC1CCCCC1)C(c1ccccc1)N(Cc1ccco1)C(=O)c1csnn1 (stereo not given),0,1,30,i,-14,12,3,0,
COc1cccc(CC(=O)Nc2ccc(F)c(S(=O)(=O)N3CCOCC3)c2)c1,1,-1,3,nt,nt,nt,-4,nt,
Cc1ccc(S(=O)(=O)N2CCCC(C(=O)NCCC(C)C)C2)cc1 (stereo not given),-2,-5,-2,i,-12,-3,nt,-3,

# Bioassay records as filed in PubChem BioAssay.

# Hits appear at their usual frequency. Share with any hit: about 2.9%.
